Screens: PubChem, GNF / Scripps  Winzeler lab
liver stage = exo-erythrocytic parasite development inhibition – imaging, Malaria Box, P. yoelii, HepG2-A16-CD81EGFP, dose response (AID 602156); P. yoelii liver stage in HepG2-A16-CD81EGFP, imaging; first-round cut-off not given here; calls after a first round at 10 µM; hits with a dose series show IC50 in µM; 5,700 compounds, 4.8% hits; in the data active = a potency from the dose series;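 note: infected cells exposed to compound for 48 hours before fixation; stained parasite area by imaging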
* hit, by the source's call; i = inactive. Not all compounds are listed, so the mix of outcomes need not match the whole.

SMILES	liver stage
CCC(c1nc2ccccc2c(=O)n1-c1ccc(Br)cc1)N(CCc1ccccc1)C(=O)c1cccc(C(F)(F)F)c1 (centres undefined)	i
CCN1/C(=C/c2ccc3ccccc3[n+]2CC)Sc2sc3ccccc3c21	0.0062µM*
CCCCCN(C(=O)CCc1ccccc1)C(CC)c1nc2ccccc2c(=O)n1-c1ccc(Cl)cc1C (centres undefined)	i
CCOC(=O)c1ccc(-c2c(-c3cc(CC)c(OC)cc3O)noc2C)o1	i
CCOc1ccc2nc(C)cc(Nc3cccc(O)c3)c2c1	i
O=C(NC1CCN(Cc2ccccc2)CC1)c1cc(-c2ccc(F)cc2)cc(-n2cnnn2)c1	i
Cc1ccc(NC(=O)C2C3C=CC4(O3)C2C(=O)N(Cc2cccnc2)C4C(=O)NC2CCCCC2)cc1 (centres undefined)	i
Cc1cc(Nc2ccc(Cl)c(Cl)c2)n2ncnc2n1	i
CCCc1c2ccc(C)n2cc[n+]1CC(=O)c1ccc(OC)cc1	i
CCOc1ccc(-c2cn3c(n2)sc2cc(C(=O)NCCN(CC)CC)ccc23)cc1	i
CC(Cl)=CC[N+]1(CC#Cc2cccc3ccccc23)CCOCC1	i
CC1CCCCN1CCCNc1ncc(C(=O)NCc2ccccc2)c(NC2CCCC2)n1 (centres undefined)	i
CN(C)c1cc[n+](CC(=O)c2ccc(Br)cc2)cc1	i
O=C(NC1CCN(Cc2ccccc2)CC1)[C@@H](c1ccccc1)N1Cc2ccccc2C1=O	i
CCCCCCN(C(=O)COCc1ccccc1)C(CC)c1nc2ccccc2c(=O)n1-c1cccc(Cl)c1 (centres undefined)	i

Retrieved by compound from the entries so far, 7 records:
SMILES	liver stage
Cc1ccc(NC(=O)C2C3C=CC4(O3)C2C(=O)N(Cc2cccnc2)C4C(=O)NC2CCCCC2)cc1 (centres undefined)	i
O=C(NC1CCN(Cc2ccccc2)CC1)c1cc(-c2ccc(F)cc2)cc(-n2cnnn2)c1	i
CC1CCCCN1CCCNc1ncc(C(=O)NCc2ccccc2)c(NC2CCCC2)n1 (centres undefined)	i
CCOC(=O)c1ccc(-c2c(-c3cc(CC)c(OC)cc3O)noc2C)o1	i
CCC(c1nc2ccccc2c(=O)n1-c1ccc(Br)cc1)N(CCc1ccccc1)C(=O)c1cccc(C(F)(F)F)c1 (centres undefined)	i
CCCc1c2ccc(C)n2cc[n+]1CC(=O)c1ccc(OC)cc1	i
CCOc1ccc2nc(C)cc(Nc3cccc(O)c3)c2c1	i

Later entries
SMILES	liver stage
CN(Cc1cc(-c2ccc(F)cc2)ccc1O)CC(O)c1ccccc1 (centres undefined)	i
CN=C1S/C(=C\c2ccc(OCC(=O)O)c(OC)c2)C(=O)N1C	i
COc1ccc2[nH]c3c(NCCN4CCCCC4)ncnc3c2c1	i
CCOc1ccc(C(=O)Cn2ccc(=NCc3ccccc3)cc2)cc1[N+](=O)[O-]	i
O=C(NCCCCNc1ccnc2cc(Cl)ccc12)C(c1ccccc1)c1ccccc1	i
CCC(COC)NC(=O)c1cn(C2CCCCC2)cc(C(=O)NC(C)(C)C)c1=O (centres undefined)	i
O=C(N/C(=C/C=C/c1ccccc1)C(=O)N1CCOCC1)c1ccccc1	i
CCCCCCC1CCC(O)(C(C)(O)C(=O)NC2C(=O)N3NCCCC3C(=O)N(O)C(COC)C(=O)NCC(=O)N3NCCCC3C(=O)N(O)C(C)C(=O)OC2C)OC1C (centres undefined)	i
COc1ccc(OCC(=O)Nc2cccc(-c3nc4ncccc4o3)c2)cc1	i
O=C(NCc1cccs1)c1ccc(OC2CCN(CC3CCCCC3)CC2)c(Cl)c1	i
COc1cc(C(c2c(C)n(C)n(-c3ccccc3)c2=O)c2c(C)n(C)n(-c3ccccc3)c2=O)cc(Cl)c1OCc1ccccc1	i
O=C(NCCCCCCNC(=O)Nc1nc(-c2ccc(F)cc2)cs1)Nc1nc(-c2ccc(F)cc2)cs1	i
CC(=O)N(/C=C1/Sc2ccccc2C1=O)c1ccc(C)cc1	i
CS(=O)(=O)c1ccccc1S(=O)(=O)N1CCC(NC(=O)c2ccccc2Cl)(C(=O)O)CC1	i
C=CCN1C(=O)C(=C2Sc3ccc(OC)cc3N2C)SC1=Nc1ccccc1-c1ccccc1	i
COc1cccc(-c2ccc(O)c(CNC(C)c3cccc4ccccc34)c2)n1 (centres undefined)	i
COCCN1C(=O)c2ccccc2C(C(=O)Nc2cccc(C(F)(F)F)c2)C1c1cccs1 (centres undefined)	i
Cc1ncc(CN2CCC(C(=O)Nc3ccc(-c4nc5ccccc5o4)cc3)CC2)s1	i
COC(=O)C1=CN(Cc2ccc(Cl)cc2)C=C(C(=O)OC)C1c1ccc(Cl)c(Cl)c1	i
C=CCOC(=O)C1=C(C)N=C2SCCC(=O)N2C1c1ccc(OC(=O)c2ccco2)cc1 (centres undefined)	i
COc1ccccc1C(c1c(C)[nH][nH]c1=O)c1c(C)[nH][nH]c1=O	i
N#Cc1cc(C#N)c(N2CCN(c3cccc(Cl)n3)CC2)nc1N	i
COc1ccc(-n2nc(C(C)(C)C)cc2NC(=O)CN(C(=O)c2ccc(C(C)(C)C)cc2)C(C)C)cc1	i
O=C1C(Nc2cccc(O)c2)=C(N2CCCCC2)C(=O)c2ccccc21	i
COc1ccccc1N(CC(=O)N1CCCCC1)S(=O)(=O)c1ccccc1	i
COc1ccc(C2CC(=O)C3=C(C2)NC(C)=C(C(=O)OC(C)C)C3c2cccc(Br)c2)cc1OC (centres undefined)	i
O=C(C=Cc1ccccc1)NNC(=O)c1cccnc1	i
CC(Cc1ccsc1)Nc1nc2nonc2nc1N(C)C (centres undefined)	i
COc1cc(OC)cc(C(=O)NCc2n[nH]c(=S)n2-c2cccc(Cl)c2)c1	i
O=C(Nc1ccccc1Cl)C1CCCN1C(=O)OCc1ccccc1 (centres undefined)	i

Structures above containing a CF3 group:
SMILES	liver stage
CCC(c1nc2ccccc2c(=O)n1-c1ccc(Br)cc1)N(CCc1ccccc1)C(=O)c1cccc(C(F)(F)F)c1 (centres undefined)	i
COCCN1C(=O)c2ccccc2C(C(=O)Nc2cccc(C(F)(F)F)c2)C1c1cccs1 (centres undefined)	i

The listing continues:
SMILES	liver stage
CCN(CC)CCN1C(=O)c2ccccc2NC1c1ccc(Br)cc1 (centres undefined)	i
O=C(Cc1cccs1)N1CCOc2c(cc(-c3csc4ccccc34)cc2OCCc2ccccn2)C1	i
CCN(CC)c1nc(=S)nc(NC(C)(C)C)[nH]1	i
Cc1ccc(N=C2S/C(=C\c3c(Cl)cccc3Cl)C(=O)N2c2ccc(C)c(C)c2)cc1C	i
O=C(N1CCN(c2ccc(C(F)(F)F)cc2[N+](=O)[O-])CC1)C(Cl)(Cl)Cl	i
Cc1[nH]c2ccccc2c(=O)c1Br	0.21µM*
O=C(O)CSc1nc2ccc3[nH]snc3c2n1	i
CCCOc1ccc(C(O)=C2C(=O)C(=O)N(CCN3CCOCC3)C2c2ccc(F)cc2)c(C)c1 (centres undefined)	i
Cc1cc2nc(N=C(N)N)nc(C)c2cc1C	i
COc1ccc2nc(C)cc(Nc3ccc(Oc4ccc(Br)c5ccccc45)c(Cl)c3)c2c1	i
COc1c(N2CCN(Cc3c(C)cc(C)cc3C)CC2)c2nc3oc2c2c(OC(=O)C(C)(C)C)c(C)c4c(c12)[C@@H](O)[C@@](C)(OC=C[C@H](OC)[C@@H](C)[C@@H](OC(C)=O)C(C)[C@H](O)[C@H](C)[C@@H](O)C(C)C=CC=C3C)O4 (some centres undefined)	i
O=C(NNC(=O)c1csnn1)c1ccc(C(F)(F)F)cc1	i
CCN1/C(=C/c2cccc[n+]2C)Sc2ccc(OC)cc21	i
CC(C)(C)CC(C)(C)Nc1c(-c2ccccc2OC(=O)C(c2ccccc2)c2ccccc2)nc2ccccn12	i
COc1ccc(CC(=O)Nc2sc3c(c2C(=O)Nc2cccc4ccccc24)CCCC3)cc1	i
CCC(=O)NC(c1ccccc1Cl)c1cc(Cl)c2cccnc2c1O (centres undefined)	1µM*
O=C(Nc1cccc(OC(=O)c2ccc([N+](=O)[O-])cc2)c1)c1ccc([N+](=O)[O-])cc1	i
COc1ccc(Nc2nc(Nc3ccc(OC)cc3)c3ccccc3n2)cc1	i
Cc1cn2c3ccccc3n(CCN3CCOCC3)c2n1	i
CCC(c1nc2ccccc2c(=O)n1-c1ccc(F)cc1)N(CCc1ccccc1)C(=O)COc1ccccc1 (centres undefined)	i
Oc1cccc2ccc[n+](CC(O)Cn3c4ccccc4c4ccccc43)c12 (centres undefined)	0.31µM*
CC(NCCCN(C)C)c1cc(C(C)(C)C)cc2c1CCC2(C)C (centres undefined)	i
Cc1nc(CC(=O)N2CCCC(CNC(=O)C3(c4ccc(Cl)cc4)CC3)C2)cs1 (centres undefined)	i
O=C(Nc1nc(-c2ccccn2)cs1)c1ccc(Oc2ccc(C(=O)Nc3nc(-c4ccccn4)cs3)cc2)cc1	i
COc1cccc(CCN2Cc3ccc(C(=O)NC(C)C)cc3N=C2c2ccc(C)cc2)c1	i
C=CCNC(=S)N1CCN(c2ccc([N+](=O)[O-])cc2)CC1	i
CN1C(=O)N(C)C2(c3ccccc3)NN3C(=NC12c1ccccc1)SC1=C3C(=O)c2ccccc2C1=O (centres undefined)	i
CC(=NNC(=O)c1ccc([N+](=O)[O-])cc1)c1cccc([N+](=O)[O-])c1	i
COc1cc2c3cc1Oc1c(OC)c(OC)cc4c1C(Cc1ccc(O)c(c1)Oc1ccc(cc1)CC3N(C)CC2)N(C)CC4 (centres undefined)	i
COc1cccc(C(=O)N(CCCC(C)Nc2cc(OC)cc3cccnc23)Cc2ccc(OC)c(OC)c2)c1 (centres undefined)	i
CN(CCCNc1ccnc2cc(Cl)ccc12)C(=O)c1cc(Cl)cc(Cl)c1	i
CCN1C(=O)N(CC(N)=O)C(=O)C12CCN(Cc1ccc(N(C)c3ccccc3)cc1)CC2	i
COc1ccc(CCN2C(=O)N(CC(C)C)C(=O)C23CCN(Cc2ccccc2O)CC3)cc1	i
CCOC(=O)C1=C(C)NC2=C(C(=O)CC(c3ccc(Cl)cc3)C2)C1c1ccccc1Cl (centres undefined)	i
Nc1ccc2nc(-c3cccc(-c4nc5ccc(N)cc5s4)c3)sc2c1	i
COC(=O)CNC(=O)c1sc2ncn(CC(=O)Nc3ccccc3OC)c(=O)c2c1C	i
COc1ccc(C2CC(=O)C3=C(C2)NC(C)=C(C(=O)OC2CCCCC2)C3c2ccc(F)cc2)cc1OC (centres undefined)	i
CCOC(=O)c1ccc(NC(=O)c2ccc3nc(NC(=O)c4ccc(C(=O)OC)cc4)sc3c2)cc1	i
COC(C(=NO)c1ccc(Cl)cc1)c1ccccc1 (centres undefined)	i
COc1ccc(Cn2c(SCC(=O)Nc3ccccc3OC)nc3ccsc3c2=O)cc1	i
Cc1ccc(N2C(N)=NC(N)=NC2(C)C)c(C)c1	i
O=C(NC(CN1CCCC1)c1ccccc1)C1CCCCN1S(=O)(=O)c1ccc(Cl)cc1 (centres undefined)	i
COc1cc(NC(C)CCCN(Cc2ccccc2OC)C(=O)c2ccc(Cl)c([N+](=O)[O-])c2)c2ncccc2c1 (centres undefined)	i
CCN1CCN(c2cc(C)c3cc(NC(=O)/C=C/c4ccccc4Cl)ccc3n2)CC1	i
COc1cncc(-c2cncc(-c3ccc(C)cc3)n2)c1	i
CCN1CCCC1CNc1ncnc2c1[nH]c1ccc(F)cc12 (centres undefined)	i
CN(C)CCNc1cc(-c2cccc(C(F)(F)F)c2)nc(-c2ccncc2)n1	i
CCOC(=O)COC1=C(CCCCC2CCCCC2)C(=O)c2ccccc2C1=O	i
CCCCCCC(=O)NC1CCC(Nc2ccnc3cc(Cl)ccc23)CC1 (centres undefined)	i
COC(=O)C1=C(C)N(c2ccc(N(C)C)cc2)C(C)=C(C(=O)OC)C1c1ccc(Br)cc1	i
O=C(Nc1ccccc1Cl)NC1(C(=O)NCC2CCCO2)CCCCC1 (centres undefined)	i
CC(=O)N(Cc1ccc(F)cc1)C1=C(NCc2ccccc2)C(=O)c2ccccc2C1=O	i
S=C(NN=Cc1ccccn1)NC1CC2C=CC1C2 (centres undefined)	i
CCN1CCN(c2cc(C)c3cc(NC(=O)C=Cc4ccccc4Cl)ccc3n2)CC1	i
Cc1ccc(C[n+]2cc(-c3ccc(F)cc3)n3c2CCC3)cc1	i
COc1ccc(NC(=O)CCCCCn2c(SCC(=O)NCC3CCCO3)nc3ccsc3c2=O)cc1 (centres undefined)	i
CCN(c1ccc(F)cc1)S(=O)(=O)c1ccc2[nH]cc(C(=O)NC(C)(C)C)c(=O)c2c1	i
COc1ccc(C2N(Cc3ccccc3)c3ccccc3N2Cc2ccccc2)cc1	0.12µM*
COc1ccccc1C(NC(=O)c1cc(OC)c(OC)c(OC)c1)c1cc(Cl)c2cccnc2c1O (centres undefined)	i
CCOC(=O)c1c(Cl)nnc(-c2ccccc2)c1-c1ccccc1	i
Other structures follow:
SMILES	liver stage
CC(=O)O[C@H]1C(=O)[C@@]2(C)C([C@H](OC(=O)c3ccccc3)[C@]3(O)C[C@H](OC(=O)[C@@H](O)[C@@H](NC(=O)c4ccccc4)c4ccccc4)C(C)=C1C3(C)C)[C@]1(OC(C)=O)CO[C@@H]1C[C@@H]2O (some centres undefined)	i
COc1ccc(Nc2ccccc2NC(=O)c2cccc(N(C)C)c2)cc1	i
CC[C@H]1CN2CCc3cc(OC)c(OC)cc3[C@@H]2C[C@@H]1C[C@H]1NCCc2cc(OC)c(OC)cc21	0.0075µM*
CCOC(=O)C1=C(N)N(c2cccc([N+](=O)[O-])c2)C2=C(C(=O)CC(C)(C)C2)C1c1ccc(Cl)cc1 (centres undefined)	i
CC1=C(C(=O)Nc2ccccn2)C(c2ccc(O)cc2)n2ncnc2N1 (centres undefined)	i
